Screening results deposited in PubChem BioAssay by National Center for Advancing Translational Sciences (NCATS).
TRPML1 agonist: qHTS for Agonists of the Human Mucolipin Transient Receptor Potential 1 (TRPML1). TRPML1-expressing cells, Ca2+ dye fluorescence, FDSS; host cell line not named in the record; reference of the full effect not given here. activation, % (test concentration not listed). 0.12% of 410,000 active. AID 624414, 2012; in the data active = activation above about 50%; inconclusive = about 30% to 50%; inactive = below about 30%; also: 0% is about no effect; the text of the record puts the active cut at 80%
Target sequence (Q9GZU1 whole entry, looked up): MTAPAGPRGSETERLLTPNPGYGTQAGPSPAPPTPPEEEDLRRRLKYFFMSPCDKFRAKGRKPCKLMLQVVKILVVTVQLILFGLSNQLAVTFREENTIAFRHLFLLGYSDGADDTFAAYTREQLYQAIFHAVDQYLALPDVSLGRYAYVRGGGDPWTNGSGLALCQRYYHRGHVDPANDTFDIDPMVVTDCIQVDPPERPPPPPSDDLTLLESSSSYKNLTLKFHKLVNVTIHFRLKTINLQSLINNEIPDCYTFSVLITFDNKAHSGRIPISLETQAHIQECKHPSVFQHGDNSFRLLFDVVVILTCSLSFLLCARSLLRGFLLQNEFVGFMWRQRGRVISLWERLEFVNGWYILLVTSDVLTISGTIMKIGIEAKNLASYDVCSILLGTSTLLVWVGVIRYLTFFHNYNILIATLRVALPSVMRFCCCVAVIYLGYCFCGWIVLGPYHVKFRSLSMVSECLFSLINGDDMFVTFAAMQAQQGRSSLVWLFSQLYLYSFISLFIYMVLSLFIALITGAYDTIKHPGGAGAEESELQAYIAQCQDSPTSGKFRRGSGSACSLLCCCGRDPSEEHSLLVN
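In this qHTS format, compounds were pin-transferred onto Ca8-dye-loaded TRPML1-DL cells induced with Tet overnight, and intracellular Ca2+ fluorescence was recorded kinetically for 110 s after a 10 s baseline. A subsequent 4uM final 54-4 (EC80) addition followed by a second 110 s read served as the antagonist phase.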
Six1-Eya2 inh: qHTS Assay for Inhibitors of the Six1/Eya2 Interaction; Homeobox protein SIX1 (Homo sapiens) + Protein phosphatase EYA2 (Homo sapiens), …; 0.56% of 360,000 active; activity change, % (concentration not given with the values); AlphaScreen GST-Six1/His-Eya2 binding, biochemical; hits give low values; control for the full effect not named in the record; in the data active = activity change below about -65%; inconclusive = about -30% to -65%; inactive = above about -30%; also: % is scaled to controls: 0 for no effect and ±100 for the full control effect
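Compounds are tested against tagged Six1 and Eya2 proteins bridged by glutathione donor and nickel acceptor beads; after a one-hour incubation at 37 °C without light, AlphaScreen emission is recorded.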
PINK1 modulator: A Quantitative High throughput Screen to Identify Chemical Modulators of PINK1 Expression | PINK1 immunofluorescence, high-content cytometry, 24 h | Potency, µM (series often up to 76.6 µM), without a hit: at the highest dose activation (PINK1 increase), actives largely listed as activators | 0.2% of 410,000 active; active = well fitted activation curve with a large enough effect; inconclusive = small, poorly fitted or top-dose-only effect; inactive = flat fitted curve, though single readings scatter; cell line not stated here;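 also: potency is read from the fitted curve at half-maximal effect; % of control where 0% means no effect; nearly all actives have a fitted effect of over 65% in size; a mitochondrial uncoupler was the plate control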
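Stable cell line, 250 cells/well, 12 h attachment; compounds pinned at 5 concentrations, 24 h; CCCP control. Fixed with nuclear dye, primary antibodies 12 h at 10 degrees C, secondary plus cell stain; laser-scanning cytometer read.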
D2 ag: Beta-Arrestin HTS for Positive Allosteric Modulators of the Human D2 Dopamine Receptor: Agonists; 0.084% of 360,000 active; DiscoveRx PathHunter D2 beta-arrestin, luminescence, 90 min; 100% = 57 uM dopamine signal; activation, % (concentration not given with the values); in the data active = activation above about 40%; inconclusive = about 15% to 40%; inactive = below about 15%; also: compound concentration not given in the record; the text of the record calls up to 30% inactive
Target sequence (P14416 whole entry, looked up): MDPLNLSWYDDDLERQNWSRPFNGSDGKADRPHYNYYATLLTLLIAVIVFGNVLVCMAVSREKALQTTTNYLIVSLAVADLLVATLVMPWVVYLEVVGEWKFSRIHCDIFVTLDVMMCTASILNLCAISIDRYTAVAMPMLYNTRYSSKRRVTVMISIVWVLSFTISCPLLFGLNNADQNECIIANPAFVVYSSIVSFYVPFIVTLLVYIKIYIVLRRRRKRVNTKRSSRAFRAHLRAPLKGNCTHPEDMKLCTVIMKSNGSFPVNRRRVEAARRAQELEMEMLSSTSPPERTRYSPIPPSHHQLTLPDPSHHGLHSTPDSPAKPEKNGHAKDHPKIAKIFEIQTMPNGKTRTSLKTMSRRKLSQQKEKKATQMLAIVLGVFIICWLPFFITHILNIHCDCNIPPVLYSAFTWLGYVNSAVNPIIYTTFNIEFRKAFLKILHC
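Agonist mode: compounds alone added to overnight-plated D2 PathHunter cells for 90 min at 37 C, with 57 uM final dopamine (EC100) defining full response. Beta-arrestin recruitment detected by chemiluminescent reagent, read after 1 h at ambient temperature.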
TRPML1 blocker: qHTS for Inhibitors of the Human Mucolipin Transient Receptor Potential 1 (TRPML1); Mucolipin-1 (Homo sapiens), Q9GZU1; TRPML1-inducible cells, Ca2+ dye fluorescence, FDSS; hits give low values; inhibition of EC80 agonist-evoked calcium signal; activity change, negative = inhibition, % (test concentration not listed); 0.02% of 390,000 active; in the data active means activity change below about -50%; inconclusive means about -30% to -50%; inactive means above about -30%;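 also: stimulus is agonist 54-4 at its EC80 concentration; % is scaled to controls: 0 for no effect and ±100 for the full control effect; compound concentration not given in the record; the text of the record puts the active cut at -80%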
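Tet-induced TRPML1-DL cells loaded with Ca8 no-wash calcium dye were read kinetically on FDSS. Compound addition was followed by EC80 agonist 54-4 (4 uM final); inhibition was read over 110 s.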
CtBP-E1A blk: qHTS Assay for Inhibitors of the CtBP/E1A Interaction; AlphaScreen GST-E1A/His-CtBP binding, 1536-well; hits give low values; control for the full effect not named in the record; 0.49% of 340,000 active; activity change, % (no concentration beside the values); CtBP / adenovirus E1A interaction (AlphaScreen); in the data active means activity change below about -65%; inconclusive means about -30% to -65%; inactive means above about -30%; also: % is scaled to controls: 0 for no effect and ±100 for the full control effect; compound concentration not given in the record
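Protein mix (5X: 125 nM each GST-E1A, His-CtBP) was incubated with pinned compound 2 h at 37 deg C in dark, in 50 mM Tris pH 8.0 buffer with 300 mM NaCl. Glutathione donor and nickel acceptor beads followed; AlphaScreen signal read after 1 h.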
Starred values were filed as active, the others as inactive; ? = inconclusive; / = not tested or not shown; & = joins results of further samples; [ ] = remark or other dose. Rows are unselected. Share with any hit: about 1%.

SMILES	TRPML1 agonist	Six1-Eya2 inh	PINK1 modulator	D2 ag	TRPML1 blocker	CtBP-E1A blk
CCOc1ccc(/C=N\NC(=O)CC(=O)NCCc2ccccc2)cc1	1.9	-3.4	2.1%	-2.0	15.1	-0.7
COc1ccc(S(=O)(=O)N2CCC(C(=O)Nc3ccc4c(c3)OCCO4)CC2)cc1OC	-0.6	-2.7	-24.5%[38.3 µM]	-2.5	-5.1	-10.7
OCC1(CCc2ccccc2)CCN(C/C=C/c2ccccc2)CC1	0.7	-12.4	6.0%	-8.7	-19.8	-13.2
CCc1nnc(NC(=O)CN2CCN(Cc3cccc(OC)c3)CC2)s1	0.3	-2.3	1.7%	-0.9	-13.2	-21.6
CN(Cc1ccc(C(C)(C)C)cc1)C(=O)c1ccc2c(=O)n3c(nc2c1)CCC3	0.1	-4.1	1.9%	-7.1	2.3	7.2
CCOc1ccccc1N1CCN(C(=O)c2c(-c3ccccc3Cl)noc2C)CC1	1.0	2.2	1.9%	2.5	6.7	5.4
COc1ccc(S(=O)(=O)Nc2ccc3c(c2)C(=O)N([C@@H](C)CO)C[C@H](C)[C@H](CN(C)CC2CC2)O3)cc1	-0.5	-0.9	-0.9%	1.7	-4.7	8.7
OCCSc1ncnc2c1oc1ccccc12	-0.9	-7.9	-1.4%	-2.2	-1.7	6.4
O=C(Nc1ccc(N2CCN(C(=O)c3cccs3)CC2)cc1)c1cccnc1Cl	0.1	-10.3	0.7%	0.4	21.9	/
Cc1ccc(CNC(=O)CCNC(=O)Cn2ccc3ccccc3c2=O)cc1	0.7	8.2	0.7%	-5.3	10.2	11.5
COc1ccccc1C(=O)Nc1nc(-c2ccc3c(c2)OCCO3)cs1	0.6	0.2	3.6%	0.7	2.1	-0.4
CCOc1ccc(NC(=O)NCCCn2c(C)nc3cc(C)c(C)cc32)cc1	0.5	-3.6	3.1%	-0.9	1.6	-8.5
COCCn1c(SCC(=O)OC(C)C)nnc1-c1ccccc1	1.0	-0.3	-3.2%	-2.4	23.0	0.7
Cc1ccc(N2CC(C(=O)Nc3cccc(C(=O)NC4CC4)c3)CC2=O)cc1 (centres undefined)	0.2	-6.5	0.6%	-2.0	-7.6	-3.0
COC(=O)C1=C(C)N=c2s/c(=C/c3cccs3)c(=O)n2C1c1ccc(F)cc1 (centres undefined)	0.4	-4.2	10.4%[38.3 µM]	0.3	-9.8	-8.1
COc1cccc2ccc(CC(O)(c3ccccc3)c3ccccc3)nc12	-0.1	9.5	39.8µM*	-3.1	1.4	-24.3
CCOc1cc(/C=N/NC(=O)CN2CCOCC2)ccc1OCc1ccc(Cl)cc1	-0.8	5.8	-0.7%	-2.4	-7.7	-2.6
CCn1cc(C2=NC(C)CO2)c2ccccc21 (centres undefined)	-0.1	2.3	1.5%[38.3 µM]	0.1	-2.2	-2.8
Cc1ccc(-c2noc(CN(C3CCCCC3)S(=O)(=O)c3ccc(Cl)cc3)n2)cc1	-0.8	/	2.0%	/	-1.1	/
COc1cccc(NC(=O)CN(C)CC(=O)c2c(C)[nH]c3ccccc23)c1	1.0	-0.4	4.6%	10.9	12.0	-0.6
CC1(C(=O)NS(=O)(=O)c2ccccc2OC(F)(F)F)CCN1C(=O)Cc1ccccc1 (centres undefined)	-0.3	4.9	0.8%	-4.6	/	10.0
Cc1cccc(N2CC(C(=O)OCC(=O)c3c(N)n(CC(C)C)c(=O)n(C)c3=O)CC2=O)c1C (centres undefined)	0.2	-8.5	3.8%	0.5	6.4	0.2
Nc1cccc(-n2nncc2-c2ccccc2)c1	2.2	-2.3	-2.5%	-1.9	2.8	1.7
Cc1ccc([N+](=O)[O-])cc1N(CC(=O)N1CCCCC1)S(C)(=O)=O	0.8	1.9	-1.4%	-2.3	-12.8	0.0
Cc1ccc(S(=O)(=O)N(C)C[C@@H]2Oc3ccc(NC(=O)CCC(F)(F)F)cc3CC(=O)N([C@@H](C)CO)C[C@@H]2C)cc1	0.1	8.6	6.0%	-0.7	-6.2	-0.2
O=C(Nc1c2c(nn1-c1ccccc1)CS(=O)(=O)C2)c1ccc(Br)o1	-1.1	-5.9	-1.1%	-1.7	3.2	0.4
O=C(NCc1cccs1)c1cc(-c2ccccc2)nn1CC1CC(c2cccc([N+](=O)[O-])c2)=NO1 (centres undefined)	1.0	-6.8	-0.2%	0.3	-5.2	-7.6
CC1(C)CC(=O)C=C(c2ccc3ccccc3c2)C1	-0.3	10.3	0.2%	-0.1	0.8	-22.1
O=C(O)C(CCCCNS(=O)(=O)c1ccc(F)cc1)NS(=O)(=O)c1ccc(F)cc1 (centres undefined)	-0.6	-2.8&-5.2	-0.5%&0.6%	-1.0&-5.7	-1.5	-7.2&1.0
Cc1ccc(C(=O)Nc2cccc(C(=O)NCc3ccco3)c2)cc1	0.0	-12.5	2.2%	-1.7	1.8	-9.9
CCOC(=O)N1CCN(C(=O)c2ccccc2N(Cc2ccccc2)S(=O)(=O)c2ccc(OC)cc2)CC1	-0.4	-1.8	1.3%	5.6	-19.8	-12.2
Cc1ccc(OCCc2csc(N)n2)cc1	0.2	-1.3	1.3%	-1.4	-9.6	-24.5
Cc1ccccc1NC(=O)Nc1nc(CN)cs1	-0.1	0.0	3.7%	-3.1	/	?
Cc1cccc(NC(=O)c2onc3c2CCCC3)c1C	1.3	10.5	-0.9%	0.3	-7.9	7.1
CCC(C(=O)NCc1cccnc1)n1nc(C)c2sc3ccccc3c2c1=O (centres undefined)	-1.8	-1.0	1.3%	-6.7	8.0	0.3
Cc1ccc(OCCCCn2c(-c3ccc(Cl)cc3)nc3ccccc3c2=O)cc1	-0.8	/	2.0%	/	-5.7	/
CCC(=O)Nc1ccc(C(=O)NNC(=O)c2cccs2)cc1	0.3	3.2	-2.2%[38.3 µM]	-1.0	15.0	-2.0
COc1ccc(C(=O)Nc2cc(C(F)(F)F)ccc2Cl)cc1OC	2.7	4.0	15.3%[38.3 µM]	-3.0	26.9	10.3
CN1CCN(S(=O)(=O)c2cccc(C(=O)NC3(C)CCS(=O)(=O)C3)c2)CC1 (centres undefined)	-0.4	7.0	4.0%	-0.1	-7.1	11.5
O=C1NCCC12C(=O)Nc1ccccc12 (centres undefined)	/	4.3	1.8%	8.1	/	5.9

With a hit mark in PINK1 modulator (from the list above):
structure | Six1-Eya2 inh | PINK1 modulator | D2 ag | TRPML1 blocker | CtBP-E1A blk
COc1cccc2ccc(CC(O)(c3ccccc3)c3ccccc3)nc12 | 9.5 | 39.8µM* | -3.1 | 1.4 | -24.3

(more compounds)
SMILES	TRPML1 agonist	Six1-Eya2 inh	PINK1 modulator	D2 ag	TRPML1 blocker	CtBP-E1A blk
Cc1ccc(S(=O)(=O)N(C)C)cc1NC(=O)COc1ccc(-c2nnco2)cc1	-1.0	-5.8	-1.1%	1.0	6.0	-8.6
Cc1ccc(-n2nnnc2SCc2nnc(-c3ccccc3Br)o2)cc1	-0.3	-1.9	/	0.1	-1.5	-2.5
CCc1ccc(NC(=O)NC2CCCCCCC2)cc1	-0.4	2.8	?	-3.6	-6.4	6.1
COc1cccc(Oc2coc3c(CN4CCOCC4)c(O)ccc3c2=O)c1	-0.9	10.4	1.6%	-1.2	8.1	-0.3
Cc1ccc(-n2ncc(C(=O)N3CCN(Cc4ccccc4)CC3)c2C2CCN(C(=O)OC(C)(C)C)CC2)cc1	1.1	/	-0.1%	/	-2.6	/
Cc1c(C(=O)C(=O)N2c3ccc(F)cc3CCC2C)c2ccccc2n1C (centres undefined)	1.3	-4.1	4.9%	0.8	27.8	-9.4
COCCSc1nnc(NC(=O)Cc2ccccc2OC)s1	-0.3	2.8	-13.3%[38.3 µM]	-0.4	7.3	2.2
COc1cc(NC(=O)c2sc3ncn(CC(=O)N4CCCC(C)C4)c(=O)c3c2C)cc(OC)c1OC (centres undefined)	-0.8	-3.4	-0.7%	3.4	1.3	-3.4
CCC(C)C(NC(=O)OC(C)(C)C)C(=O)NC(C(=O)NC(C)C(N)=O)C(C)C (centres undefined)	0.5	3.5	-1.7%	-0.7	2.4	/
O=c1[nH]c(=O)c2[nH]c(=S)n(-c3ccccc3)c2[nH]1	-0.3	3.7	0.9%	2.6	14.8	1.5
COc1ccccc1Cc1c(-c2cccc(Br)c2)nc2c(C)cc(Br)cn12	0.7	5.2	1.2%	-7.8	6.8	7.5
CCOC(=O)N1CCC(n2c(SCC(=O)NCc3ccco3)nc3ccsc3c2=O)CC1	3.0	-1.2	4.7%[38.3 µM]	1.0	5.5	-1.7
Cc1ccc(C(=O)Cc2nnc(C)s2)cc1	-1.1	5.5	1.6%	-4.4	-7.5	-1.6
Cc1noc(C)c1-c1ccc(C(=O)NCCC(F)(F)F)c2occc12	-1.1	-4.8	6.3%	-2.2	/	-1.4
Cc1nc(NC(=O)CN2CC(C)OC(C)C2)sc1C(=O)N(C)C (centres undefined)	0.3	-1.2	1.3%	5.1	0.1	-8.9
CCCCCOc1ccccc1C(=O)NCCCCCC(=O)O	1.9	-12.1	-0.3%	-1.8	-5.1	8.0
CC(/C=N/NC(=O)Cc1cccn1C)=C\c1ccco1	0.5	-24.6	-1.0%	0.0	7.7	-16.2
COc1nc(-c2ccc(C)cc2)ccc1-c1noc(-c2cccnc2)n1	?	2.6	1.6%&0.1%	-2.5	-13.1	1.5
CC(CNC(=O)CN(C)CC(=O)Nc1ccccc1Br)c1ccccc1 (centres undefined)	-0.3	0.2	0.5%	-2.4	-1.0	-3.9
CSc1cc(-c2ccc(Cl)cc2)c(C(=O)NN)s1	1.6	1.8	15.8%[38.3 µM]	-2.8	-4.6	12.2
Cc1ccc2c(=O)cc(C(=O)NCCc3ccc(S(N)(=O)=O)cc3)oc2c1	0.5	-10.0	-2.1%	5.4	-2.2	0.5
COc1cc(SC)ccc1C(=O)NC(C)C	-0.2	5.2	2.2%	-5.6	2.3	11.0
CC[C@H](C)[C@H](NC(=O)OCc1ccccc1)C(=O)Nc1ccc(NC(C)=O)cc1	0.0	2.0	0.7%	-2.5	-10.9	-1.6
CCn1c2ccccc2c2cc(CN3CCN(Cc4ccc(OC)c(OC)c4)CC3)ccc21	1.8	/	0.3%	/	35.1	/
CC(C)(C)c1ccc(S(=O)(=O)N2CC(C(=O)O)Oc3ccc(Cl)cc32)cc1 (centres undefined)	1.4	8.0	0.7%	-2.6	22.5	4.3
CCOC(=O)N1CCN(C(=O)CCn2c(=O)[nH]c3ccsc3c2=O)CC1	0.2	2.0	0.4%	6.4	52.6	7.7
CC(C)CC1NC(=O)N(Cc2nc3ccccc3s2)C1=O (centres undefined)	0.6	5.3	0.1%	0.3	-18.6	7.7
CN1C(=O)/C(=C/c2ccc(OCc3cccc(F)c3)cc2)NC1=S	-0.1	-0.1	5.3%	-3.9	-5.2	5.6
